# Screening data (PubChem BioAssay)
# Ecoli rRNA inh: selective bacterial rRNA inhibition in E. coli; E. coli WT GFP vs humanized-ribosome RFP mutants, fluorescence, 24 h; stronger effect = lower value; DMSO median 0, no signal -100; GFP signal change (wild-type ribosome), % (no concentration beside the values); actives 1.6% (n = 350,000);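 active = significant combined selectivity score with lowered wild-type GFP, culture density cut under 30%, mutant RFP and density less affected; inactive = any of these conditions unmet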; note: one replicate is shown; some compounds called inactive have numbers as strong as hits
# FGF22 binding: shifts melting point of recombinant human FGF22 | Q9HCT0 | recombinant FGF22 thermal shift, SYPRO orange fluorescence; percent of sucrose octasulfate shift, DMSO zero | calls only at 9.99 µM | actives 1.5% (n = 340,000);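 active = melting point raised past a set limit in the mean and every replicate; three in four hits are not shown here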
# Target sequence (Q9HCT0 whole entry, looked up): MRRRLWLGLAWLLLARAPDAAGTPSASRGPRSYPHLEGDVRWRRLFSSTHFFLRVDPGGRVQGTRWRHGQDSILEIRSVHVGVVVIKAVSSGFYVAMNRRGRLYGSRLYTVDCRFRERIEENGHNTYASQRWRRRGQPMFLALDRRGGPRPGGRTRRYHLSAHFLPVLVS
# AF4-AF9 inh: MLL-AF4/AF9 protein interaction inhibition; P42568; AlphaScreen, biotin-AF4 peptide binding to FLAG-AF9; inhibition, % at 10 µM; actives 0.47% (n = 350,000); AID 651704;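 active = every replicate reaching a set inhibition limit, whatever the replicate mean, cut at about 25% in these data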;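 note: 0% = plate neutral control median and 100% = total signal loss; the record names both 10 and 1 µM as test concentration; the first replicate is given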
# Target sequence (P42568 whole entry, looked up): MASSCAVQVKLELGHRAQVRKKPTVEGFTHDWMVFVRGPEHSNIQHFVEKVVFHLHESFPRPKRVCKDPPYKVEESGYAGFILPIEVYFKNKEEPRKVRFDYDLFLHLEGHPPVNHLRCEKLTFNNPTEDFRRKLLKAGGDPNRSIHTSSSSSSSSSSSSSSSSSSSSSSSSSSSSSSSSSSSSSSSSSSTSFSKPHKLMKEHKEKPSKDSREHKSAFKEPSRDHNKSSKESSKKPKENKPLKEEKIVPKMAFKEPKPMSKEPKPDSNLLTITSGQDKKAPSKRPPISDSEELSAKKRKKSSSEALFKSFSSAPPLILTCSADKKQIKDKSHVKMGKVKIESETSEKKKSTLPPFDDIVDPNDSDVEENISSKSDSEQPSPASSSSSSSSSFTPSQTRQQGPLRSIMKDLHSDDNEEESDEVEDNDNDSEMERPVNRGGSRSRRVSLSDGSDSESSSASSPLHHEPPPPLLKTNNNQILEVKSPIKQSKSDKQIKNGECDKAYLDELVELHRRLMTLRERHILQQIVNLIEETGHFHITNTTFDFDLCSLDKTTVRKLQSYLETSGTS
# Ecoli rRNA inh OD600: also measured in Ecoli rRNA inh; calls as there; OD600 change, %; measured here: OD600 growth;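 optical density of the mix in the first replicate; 0 = DMSO median and -100 = no signal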
# Ecoli rRNA inh RFP: further read-out of Ecoli rRNA inh, marked with its call; RFP signal change, %; measured here: RFP humanized mutant strains;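 first replicate; 0 = DMSO median and -100 = no signal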
# * hit, by the source's call; i = inactive. The list is partial; the hit share may differ from the screen's.
SMILES,Ecoli rRNA inh,Ecoli rRNA inh OD600,Ecoli rRNA inh RFP,FGF22 binding,AF4-AF9 inh
O=C(Nc1cccnc1)C1Cc2c(-c3ccccc3Oc3ccccc3)ccnc2O1 (centres undefined),-34,-65,2.0,i,1.8
CN(C)CC(=O)Nc1ccc2c(c1)[C@H]1C[C@@H](CC(=O)N3CCCCC3)O[C@@H](CO)[C@H]1O2,5,16,-0.2,i,-3.6
Cc1noc(C)c1NC(=O)Nc1cccc2c1O[C@H](CN(C)Cc1ccc(C(=O)Nc3ccccc3N)cc1)[C@@H](C)CN([C@@H](C)CO)C2=O,4,6,-2.5,i,2.3
CO[C@H]1CN(C)C(=O)c2cc(NS(C)(=O)=O)ccc2OC[C@@H](C)N(CC2CCCCC2)C[C@H]1C,0,-1,-1.2,i,-1.7
CO[C@@H](CN(C)C(=O)c1cnccn1)[C@@H](C)CN([C@@H](C)CO)S(=O)(=O)c1ccccc1,0,7,1.7,i,0.0
C[C@@H]1CN([C@@H](C)CO)C(=O)c2cc(NC(=O)Nc3ccccc3)ccc2O[C@H]1CN(C)S(=O)(=O)c1cn(C)cn1,-1,-5,-1.0,i,1.1
C[C@@H]1CN([C@H](C)CO)C(=O)c2cc(NS(C)(=O)=O)ccc2O[C@H]1CN(C)Cc1ccc(C(=O)Nc2ccccc2N)cc1,2,-1,-2.8,i,-0.9
Cc1noc(C)c1NC(=O)N(C)C[C@@H]1OCCCC[C@H](C)Oc2ccc(NC(=O)Nc3ccc(F)cc3)cc2C(=O)N([C@H](C)CO)C[C@@H]1C,-3,5,-1.5,i,-2.3
CC(C)NC(=O)Nc1cccc2c1O[C@H](CN(C)Cc1ccc(-c3ccccc3)cc1)[C@@H](C)CN([C@@H](C)CO)C2=O,-1,5,-2.5,i,2.2
COc1ccc(NC(=O)N(C)C[C@H]2OCCCC[C@@H](C)Oc3ccc(NC(=O)C4CCCCC4)cc3C(=O)N([C@H](C)CO)C[C@H]2C)cc1,0,-6,-1.2,i,-0.9
CCCNC(=O)N1CC2(C1)CN(Cc1ccccc1)[C@H](CO)c1[nH]c3cc(OC)ccc3c12,1,6,-2.1,i,-0.3
CCC(=O)Nc1ccc2c(c1)C(=O)N(C)[C@H]1CC[C@H](CC(=O)NCCOC)O[C@@H]1CO2,1,-1,-1.6,i,-3.4
COc1ccc(-c2cnc3c(c2)C(=O)N([C@@H](C)CO)C[C@H](C)[C@H](CN(C)Cc2ccccn2)O3)cc1,1,8,-0.1,i,-2.9
Cc1ccc(S(=O)(=O)N2[C@H](CC(=O)OCc3ccccc3)OC[C@@H]2C(C)C)cc1,-3,-12,-10,i,-5.4
C[C@H]1CN([C@@H](C)CO)C(=O)c2cc(-c3ccccc3)cnc2O[C@H]1CN(C)Cc1ccc(C(=O)O)cc1,4,-4,-3.3,i,-2.2
C[C@@H]1CCCCO[C@@H](CN(C)Cc2ccc(C(=O)O)cc2)[C@@H](C)CN([C@@H](C)CO)C(=O)c2cc(NC(=O)C3CCCCC3)ccc2O1,4,-1,-2.2,i,-3.5
COCC(=O)Nc1ccc2c(c1)[C@@H]1C[C@@H](CC(=O)NC3CCCC3)O[C@@H](CO)[C@@H]1O2,4,6,-2.1,i,-1.1
O=C(c1ccccc1F)N1CC[C@@H]2[C@H]1c1cc(-c3ccccc3)ccc1N[C@@H]2CO,1,-2,16,i,-12
CCCNC(=O)[C@@H]1[C@@H](CO)[C@@H]2Cn3c(ccc(-c4cccc(F)c4)c3=O)[C@H]1N2C(C)=O,0,1,0.2,i,-4.3
O=C(Nc1cc(F)ccc1F)N[C@H]1C=C[C@H](CC(=O)N2CCc3ccccc3C2)O[C@@H]1CO,-1,-5,0.7,i,-1.3

# Part of the list above, limited to Ecoli rRNA inh OD600:
SMILES	Ecoli rRNA inh OD600
CCC(=O)Nc1ccc2c(c1)C(=O)N(C)[C@H]1CC[C@H](CC(=O)NCCOC)O[C@@H]1CO2	-1
O=C(c1ccccc1F)N1CC[C@@H]2[C@H]1c1cc(-c3ccccc3)ccc1N[C@@H]2CO	-2

# The list goes on.
SMILES,Ecoli rRNA inh,Ecoli rRNA inh OD600,Ecoli rRNA inh RFP,FGF22 binding,AF4-AF9 inh
O=C(C[C@H]1C[C@H]2c3cc(NC(=O)NC4CCCCC4)ccc3O[C@H]2[C@H](CO)O1)NCCc1ccccc1,-11,-14,-4.2,i,-15
CN(C)Cc1csc(NC(=O)Nc2ccccc2Cc2ccccc2)n1,-4,-18,5.7,i,7.6
CC(=O)c1cccc(-c2ccnc3c2CC(C(=O)NCc2ccc(F)c(F)c2)O3)c1 (centres undefined),-20,-36,-2.7,i,2.1
C[C@@H]1CN([C@@H](C)CO)C(=O)c2cc(NC(=O)Cc3ccccc3)ccc2O[C@@H](C)CCCCO[C@H]1CN(C)C(=O)Nc1cccc2ccccc12,0,-3,-0.7,i,-1.5
CCc1nc2ccc(C(=O)NCCOc3ccc(OC)cc3)cn2c1N(CCN(C)C)CC1CC1,0,2,3.4,i,7.6
O=C(Cc1ccncc1)NCC[C@@H]1CC[C@H](NC(=O)C2CCC2)[C@@H](CO)O1,0,4,-1.9,i,-4.3
Cc1ccccc1S(=O)(=O)N1CC[C@@H]2[C@H]1c1cc(-c3ccccc3F)ccc1N[C@@H]2CO,-3,-10,4.7,i,-7.0
COCC(=O)Nc1ccc2c(c1)C(=O)N(C)C[C@H](OC)[C@@H](C)CN(CC1CCCCC1)[C@@H](C)CO2,0,-3,2.5,i,-1.0
Cc1cccc(NC(=O)c2cccc([N+](=O)[O-])c2O)c1C,-52,-76,-17,i,-1.8
C[C@H]1CCCCO[C@H](CN(C)Cc2ccc3c(c2)OCO3)[C@@H](C)CN([C@@H](C)CO)C(=O)c2cc(NC(=O)CCC(F)(F)F)ccc2O1,-2,4,-2.5,i,1.0

# Compound profiles, as listed above. Order of screens: Ecoli rRNA inh	Ecoli rRNA inh OD600	Ecoli rRNA inh RFP	FGF22 binding	AF4-AF9 inh
# Listed for CN(C)CC(=O)Nc1ccc2c(c1)[C@H]1C[C@@H](CC(=O)N3CCCCC3)O[C@@H](CO)[C@H]1O2 : 5	16	-0.2	i	-3.6
# Listed for CCc1nc2ccc(C(=O)NCCOc3ccc(OC)cc3)cn2c1N(CCN(C)C)CC1CC1 : 0	2	3.4	i	7.6
# Listed for O=C(Nc1cc(F)ccc1F)N[C@H]1C=C[C@H](CC(=O)N2CCc3ccccc3C2)O[C@@H]1CO : -1	-5	0.7	i	-1.3
# Listed for COc1ccc(-c2cnc3c(c2)C(=O)N([C@@H](C)CO)C[C@H](C)[C@H](CN(C)Cc2ccccn2)O3)cc1 : 1	8	-0.1	i	-2.9

# Next section.
SMILES,Ecoli rRNA inh,Ecoli rRNA inh OD600,Ecoli rRNA inh RFP,FGF22 binding,AF4-AF9 inh
CC(C)CC#Cc1ccc2c(c1)O[C@@H](CN(C)C(=O)c1cnccn1)[C@@H](C)CN([C@H](C)CO)S2(=O)=O,-3,-4,-0.3,i,2.0
CCNC(=O)[C@@H]1[C@@H](CO)[C@@H]2Cn3c(ccc(-c4ccc(F)cc4)c3=O)[C@@H]2N1Cc1cc(F)ccc1F,-5,-8,1.8,i,3.1
O=C(C[C@@H]1CC[C@H](NC(=O)c2cccc(F)c2)[C@@H](CO)O1)NCc1ccc(Oc2ccccc2)cc1,1,3,-0.2,i,0.3
C[C@@H]1CN([C@H](C)CO)C(=O)Cc2cc(NC(=O)Cn3cnnn3)ccc2O[C@@H]1CN(C)Cc1ccncc1,2,13,-1.6,i,-3.3
CCCC#Cc1cnc2c(c1)C(=O)N([C@@H](C)CO)C[C@@H](C)[C@H](CN(C)C(=O)Cc1ccccc1)O2,2,-10,-1.5,i,1.2
O=C(C[C@H]1CC[C@H]2[C@@H](COC[C@@H](O)CN2S(=O)(=O)c2cccc(Cl)c2)O1)NC1CCCC1,-1,13,1.9,i,9.4
Cc1ccc(Nc2nc(NCC3CC3)nc3ccsc23)c(C)c1,-53,-77,-17,i,2.5
CC(=O)NC[C@@H]1[C@@H](c2ccc(-c3ccccc3)cc2)[C@@H](CO)N1C(=O)C1CC1,-2,-2,-0.6,i,-9.8
O=C(C[C@@H]1C[C@H]2c3cc(NS(=O)(=O)c4ccc(F)cc4)ccc3O[C@H]2[C@@H](CO)O1)NC1CCCC1,-3,-11,-2.7,i,-1.0
C[C@H]1CN([C@@H](C)CO)S(=O)(=O)c2ccc(-c3cccnc3)cc2O[C@@H]1CN(C)Cc1cncnc1,-3,-6,-0.7,i,0.5
C[C@@H]1CN([C@@H](C)CO)C(=O)c2cc(NC(=O)NC3CCCCC3)ccc2O[C@@H](C)CCCCO[C@@H]1CN(C)Cc1ccc(C(F)(F)F)cc1,0,1,-0.3,i,-1.2
CN1CCN(C(=O)C[C@@H]2CC[C@@H](NS(=O)(=O)c3cccc(F)c3)[C@@H](CO)O2)CC1,0,-3,-2.2,i,-1.7
CC(C)c1cn(CC[C@H]2CC[C@@H](NC(=O)C3CCCC3)[C@H](CO)O2)nn1,2,7,0.0,i,-0.7
O=C(C[C@H]1CC[C@@H](NC(=O)CC2CC2)[C@H](CO)O1)NCc1ccc(Cl)cc1,2,1,-1.2,i,-3.3
COCC(=O)N(C)C[C@H]1[C@H](c2ccc(-c3cccnc3)cc2)[C@H](CO)N1C(C)=O,0,-1,-3.1,i,-0.5
Cc1ccc(C(=O)OCC(=O)NC2CCCC(C)C2C)s1 (centres undefined),0,-3,-0.1,i,0.1
COc1ccc2c3c(n(C)c2c1)[C@H](CO)N(C(=O)C1CC1)CC31CCN(C(=O)Nc2cccc(F)c2)CC1,-9,-11,1.4,i,8.5
COc1ccccc1NC(=O)N1CC[C@@H]2[C@H]1c1cc(C#Cc3cccc(F)c3)ccc1N(C)[C@@H]2CO,-1,6,-3.1,i,-5.3
CO[C@H]1CN(C)C(=O)c2ccc(NS(=O)(=O)c3ccc(F)cc3)cc2OC[C@H](C)NC[C@H]1C,2,7,-1.7,i,-3.4
O=C(Cc1ccncc1)Nc1ccc2c(c1)[C@H]1C[C@H](CC(=O)N3CCc4ccccc4C3)O[C@@H](CO)[C@H]1O2,3,8,0.4,i,5.6
C[C@H](CO)N1C[C@H](C)[C@H](CN(C)S(=O)(=O)c2ccccc2)Oc2ccc(NC(=O)Nc3ccc(F)cc3)cc2CC1=O,-2,-8,5.9,i,1.1
COc1ccc(NC(=O)N(C)C[C@H]2Oc3c(NS(=O)(=O)c4ccc(OC)cc4)cccc3C(=O)N([C@@H](C)CO)C[C@H]2C)cc1,1,-1,2.9,i,0.0
Cc1ccc(OCC(=O)Nc2ccc3c(c2)nc(CCN2CCN(c4ccccn4)CC2)n3C)cc1,1,2,0.1,i,-5.4
C[C@H](CO)N1C[C@H](C)[C@H](CN(C)S(=O)(=O)c2ccc(C#N)cc2)Oc2ncc(/C=C/c3ccccc3)cc2C1=O,-6,5,0.9,i,9.8
CCCNC(=O)C[C@@H]1CC[C@@H]2[C@H](COC[C@H](O)CN2C(=O)C2CCOCC2)O1,7,13,22,i,-1.7
CC(C)(C)OC(=O)N1Cc2cc3ccccc3nc2C1,-9,-8,5.1,i,-4.1
Cc1ccc(S(=O)ONc2cccc(NOS(=O)c3ccc(C)cc3)c2)cc1 (centres undefined),-64,-75,-22,i,-0.1
C[C@@H]1CN([C@H](C)CO)C(=O)Cc2cc(NC(=O)Cc3ccccc3)ccc2O[C@H]1CN(C)CC1CCCCC1,-4,-10,3.1,i,0.8
C[C@@H]1CN([C@H](C)CO)C(=O)Cc2cc(NS(C)(=O)=O)ccc2O[C@@H]1CN(C)Cc1ccc(Oc2ccccc2)cc1,-6,-14,-0.2,i,2.7
Cc1noc(C)c1NC(=O)Nc1ccc2c(c1)C(=O)N([C@@H](C)CO)C[C@@H](C)[C@@H](CN(C)Cc1ccc(Cl)c(Cl)c1)OCCCC[C@@H](C)O2,-9,-40,17,i,3.9
Cc1noc(C)c1NC(=O)Nc1ccc2c(c1)C(=O)N([C@@H](C)CO)C[C@H](C)[C@@H](CN(C)Cc1ccc3c(c1)OCO3)OCCCC[C@H](C)O2,10,12,-0.7,i,0.3
C#CCN(C[C@H]1[C@H](OC(=O)NC2CCCC2)[C@H](OC(=O)NC2CCCC2)C[C@H]2C(=O)N(c3ccccc3)C(=O)[C@@H]12)S(=O)(=O)c1ccc(C)cc1,8,7,-4.7,i,0.8
C[C@H](O)C#Cc1ccc2c(c1)O[C@@H](CN(C)Cc1cncnc1)[C@@H](C)CN([C@H](C)CO)S2(=O)=O,-2,-3,2.2,i,-0.7
CO[C@@H]1CN(C)C(=O)c2ccc(NC(=O)Nc3c(C)noc3C)cc2OC[C@H](C)NC[C@@H]1C,4,9,-2.2,i,-2.1
COc1ccc(C(C)(O)c2nc(-c3ccccc3OC)cs2)cc1 (centres undefined),-60,-78,-17,i,-1.9
O=C(/C=C/[C@H]1O[C@@H](n2ccc(=O)[nH]c2=O)[C@H](O)[C@@H]1O)NCc1cccc2ccccc12,-3,4,-0.1,i,-3.4
O=C(Nc1ccccc1F)N[C@@H]1CC[C@H](CCNS(=O)(=O)c2ccccc2)O[C@@H]1CO,-3,-2,-0.3,i,-1.9
C[C@@H]1CN([C@@H](C)CO)C(=O)Cc2cc(NS(=O)(=O)c3ccccc3)ccc2O[C@H]1CN(C)C(=O)Nc1ccc(F)cc1,4,4,1.4,i,-0.1
